Anthrax LT inh = inhibitors of anthrax lethal toxin internalization | Cells, anthrax lethal toxin internalization, FRET ratio (460/530) | Potency, µM (series often up to 40 µM), without a hit: at the top dose activity change, negative = inhibition, hits mostly inhibitors | 70,000 tested, 0.67% active; active = well fitted falling ratio curve with the 530 nm signal flat; inconclusive = other ratio curves, or a change in one channel alone; inactive = flat curves in the ratio and both channels; the % refers to the ratio; also: % is scaled to controls: 0 for no effect and ±100 for the full control effect; nearly all actives have a fitted effect of over 50% in size; tested in ME-180 cells; beta-lactamase reporter
Prx2 Sm inh = inhibitors of Schistosoma mansoni peroxiredoxin 2; S. mansoni Prx2 activity coupled to TGR/GSH (TGR is thioredoxin glutathione reductase), NADPH fluorescence loss, qHTS; some inactives read as strong as hits; 65,000 tested, 0.07% active; Potency, µM; active means full or partial inhibition curve with a strong effect at the top dose; inconclusive means weaker partial or single-point curve; inactive means no accepted curve; also: series up to 57 µM; many of its hits are not listed in these tables
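Prx2 activity was followed as the loss of NADPH fluorescence (ex 365/em 450 nm), read every 30 sec for 8 min after H2O2 start. The enzyme mix (50 nM Prx2, 25 nM TGR, GSH, NADPH; pH 7.4 phosphate buffer) was incubated with compound for 15 min at room temperature first.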
* = called active by the depositor; u = inconclusive; x = no result given; & = joins results of further samples; [ ] = dose if it differs, or a comment. Potency is read from the fitted curve at half-maximal effect. An excerpt, so the mix of outcomes need not match the whole.

SMILES	Anthrax LT inh	Prx2 Sm inh
O=C(c1ccccc1)N1CC(COc2ccccc2)OC(c2ccco2)O1 (centres undefined)	-0.1%	>57
CCN(CCNC(=O)C1CCN(Cc2nc(-c3cccc(Cl)c3)oc2C)CC1)c1ccccc1	u	>57
COc1ccc(-c2noc(-c3ccccc3C(=O)NCc3ccco3)n2)cc1OC	-17.3%	x
COCCN1C(=O)c2oc3c(C)cc(C)cc3c(=O)c2C1c1cccc(O)c1 (centres undefined)	-2.4%	>57
CC1CCN(C(=O)CSc2nnc(Cc3cccn3C)n2-c2ccc(F)cc2)CC1	0.4%	>57
Clc1ccc(-c2nc(NCCN3CCOCC3)c3ccccc3n2)cc1	u	>57
COc1cc(C2C(C(=O)c3ccc(C)o3)=C(O)C(=O)N2CCc2ccccc2)ccc1O (centres undefined)	13.8%	>57
O=C(c1ccccc1)C1C(=O)c2ccccc2C1=O	13.2%	>57
CCN(C(=O)CN1CCN(c2ccccc2OC)CC1)c1c(N)n(Cc2ccccc2)c(=O)[nH]c1=O	-17.7%	>57
Cc1noc(C)c1-c1ccc2ncnc(NCc3cccnc3)c2c1	18.9%	>57
COc1cccc(N2CCN(C(=O)c3[nH]c(C)c(C(C)=O)c3C)CC2)c1	-3.8%	>57
CN1CCc2ccccc2Cc2[nH]c3ccccc3c2CC1	-12.3%&13.7%	>57&>57
O=C(Nc1ccc2c(c1)OCCO2)c1cccc(S(=O)(=O)N2CCOCC2)c1	-12.1%	>57
COC(=O)CSc1nnc(Cc2cc(=O)[nH]c(=O)[nH]2)n1-c1cccc(OC)c1	14.3%	>57
O=C(CCN1C(=O)C2C3C=CC(C3)C2C1=O)N1CCN(c2cccc(Cl)c2)CC1 (centres undefined)	9.5%	>57
O=C1CCCC2=C1C1(CCCC1)N=C(Nc1nc3ccccc3s1)N2	3.1%	>57
CCOC(=O)Cn1c(=O)c2c(nc3n2CCN3Cc2ccccc2)n(C)c1=O	u	>57
CCOc1ccccc1OC(=O)c1ccco1	-13.1%	>57
O=C(c1ccc(Cl)s1)N1CCc2ccccc21	-9.1%	>57
O=C(c1ccc(N2CCOCC2)nc1)N1CCOCC1	-7.9%	>57
COC(=O)CSc1ccc2c(N)c(C(=O)OC)sc2c1	-13.9%	>57
C=CCn1c(SCC(=O)NCc2cccs2)nnc1C1CCCCC1	u	>57
CN(C)Cc1nsc(N(C)C)n1	u	>57
CC(=O)N=C1SC2CS(=O)(=O)CC2N1c1c(Cl)cccc1Cl (centres undefined)	-3.1%	x
CC(=O)C1=C(c2ccccc2)NC(=O)NC1c1ccccc1OCC#N (centres undefined)	-3.5%	>57

Reformatted: entries from further up
Each structure is followed by: Anthrax LT inh, Prx2 Sm inh
- COc1cccc(N2CCN(C(=O)c3[nH]c(C)c(C(C)=O)c3C)CC2)c1
→ -3.8%, >57
- CN1CCc2ccccc2Cc2[nH]c3ccccc3c2CC1
→ -12.3%&13.7%, >57&>57
- O=C(Nc1ccc2c(c1)OCCO2)c1cccc(S(=O)(=O)N2CCOCC2)c1
→ -12.1%, >57

Continuation:
SMILES	Anthrax LT inh	Prx2 Sm inh
COc1cc(S(=O)(=O)N2CCCCCC2)ccc1Cl	-11.0%	>57
N[C@@H](Cn1cc(F)c(=O)[nH]c1=O)C(=O)O	u	>57
Cc1cc(C)c(S(=O)(=O)N(CC(=O)N2CCOCC2)C2CCCCC2)c(C)c1	-8.2%	>57
O=C(Nc1nncs1)c1cccc(S(=O)(=O)N2CCCC2)c1	0.7%	>57
CCOC(=O)N1CCN(C(=O)C2CCC(CNS(=O)(=O)c3ccccc3)CC2)CC1 (centres undefined)	-13.6%	>57
CC(C)N(C(=O)NC(=O)NCC1CCCO1)S(C)(=O)=O (centres undefined)	u	>57
COc1ccc(OCCCC(=O)Nc2nnc(C3CCCO3)s2)cc1 (centres undefined)	-0.5%	>57
C#CC(C)(C)NC(=O)CSc1nc2c(c(=O)n(C)c(=O)n2C)n1CCCC	2.7%	>57
CCN(CCNC(=O)CS(=O)(=O)Cc1nc(-c2cccc(OC)c2)oc1C)c1ccccc1	-14.6%	>57
CC1=CC(=C2C(=O)c3ccccc3C2=O)C=C(C)N1C	0.8%	>57
Cc1cccc(NC(=O)c2cccnc2)c1	10.5%	>57
COc1ccc2[nH]cc(CCN=C3SCC(=O)N3C)c2c1	8.3%	>57
CC(C)OCCCNC(=O)c1c(N)n(Cc2cccs2)c2nc3ccccc3nc12	u	>57
CC1CCc2nn(CC(=O)NCCN3CCOCC3)cc2C1 (centres undefined)	-3.6%	>57
O=C(COC(=O)c1cn(-c2ccccc2)nc1-c1cccs1)NC1CC1	-7.6%	>57
CCC(=O)Nc1c(C#N)c2nc3ccccc3nc2n1-c1ccccc1C	u	>57
O=C(NCCN1C(=O)C2C3C=CC(C3)C2C1=O)Nc1ccc(Br)cc1 (centres undefined)	-13.4%	>57
CCn1c(SCC(N)=O)nc2c1c(=O)n(C)c(=O)n2C	-0.3%	>57
O=C1OCCC1N1C(=O)c2ccccc2S1(=O)=O (centres undefined)	0.2%	>57
O=C(NC(=O)c1cccc(F)c1)OC[C@@H]1CCCN2CCCC[C@H]12	-9.1%	>57
COc1ccc(N2C(=O)CSC2c2cccc(F)c2)c(OC)c1 (centres undefined)	-1.2%	>57
Cc1noc(NS(=O)(=O)c2ccc(NC(=O)c3ccoc3C)cc2)c1C	2.8%	>57
O=C(c1cc2ccccc2oc1=O)N1CCC2(CC1)OCCO2	-7.0%	>57
Cc1ccc(N=Nc2c(O)c3ccccc3[nH]c2=O)c(S(=O)(=O)N(C)C)c1	-12.1%[8 µM]	>57
Cc1ccccc1-c1nnc(SCC(=O)Nc2ccc3c(c2)OCCO3)n1N	5.3%	>57
The results go on.
SMILES	Anthrax LT inh	Prx2 Sm inh
Cc1cc(NC(=O)CSc2nnc(CNc3ccc(F)cc3)n2C2CCCCC2)no1	-8.7%	>57
CCOc1ccc(OCC)c(NC(=O)CSc2nc3cccnc3n2C)c1	-13.4%	u
O=S(=O)(Nc1nc2ccccc2[nH]1)c1ccccc1	-13.3%	>57
COC(=O)c1cc(NCc2cccs2)ccc1N1CCOCC1	0.2%	>57
O=[As](O)(O)c1ccc(N=Nc2ccc([As](=O)(O)O)cc2)cc1	-8.7%[8 µM]	u
CCOCCn1c(=O)c2c(nc3n2CCN3c2ccc(C)cc2)n(C)c1=O	4.0%	>57
O=C(Nc1ccc([N+](=O)[O-])cc1Cl)c1cc(Cl)ccc1O	0.251µM*	>57&>57
O=C(Cn1c(=O)oc2cc(S(=O)(=O)N3CCc4ccccc43)ccc21)N1CCCCC1	u	>57
Cn1cnnc1SCC(=O)Nc1sc2c(c1C(N)=O)CCC2	u	>57
FC(F)(F)c1cc(-c2ccco2)nc(NCc2ccco2)n1	u	>57
COc1cccc(-c2nnc(SCCC(=O)O)n2C)c1	-12.9%	>57
O=C(NCCc1ccccc1)C1CCCN(S(=O)(=O)c2cccc3nonc23)C1 (centres undefined)	-2.1%	>57
Cc1cc(C(F)F)n2ncc(C(=O)N3CCc4ccccc4C3)c2n1	6.0%	>57
CSc1n[nH]c(NC2=CC(=O)CCC2)n1	-1.7%	>57
Cc1ccc(S(=O)(=O)CCc2ccccn2)cc1	-4.9%	>57
CC(=O)N1c2c(cc(Br)cc2S(=O)(=O)NCc2ccc3c(c2)OCO3)CC1C (centres undefined)	-22.5%	x
C=C(C)CC1(c2ccccc2)Oc2ccccc2-c2nc3cc(Cl)c(Cl)cc3nc21 (centres undefined)	u	x
CCOc1c(S(=O)(=O)N2CCCC2)ccc(Cl)c1Cl	-24.2%	>57
CC(C)CC1(C(=O)O)C=CCN1C(=O)c1ccccc1 (centres undefined)	-20.1%	x
CCOc1ccc(NC(=O)N2CCC(n3c(=O)[nH]c4ccccc43)CC2)cc1	-13.7%	>57
C=C1c2c(Cl)ccc(O)c2C(O)=C2C(=O)[C@@]3(O)C(O)=C(C(N)=O)C(=O)[C@@H](N(C)C)[C@@H]3[C@@H](O)[C@H]12	-2.8%[3.58 µM]	>57
CNc1nc(SCC(=O)OC)nc(N2CCOCC2)n1	-4.5%	>57
Cn1c(SCCOc2ccccc2Cl)nnc1-c1ccncc1	-17.1%	>57
CC(C)CNS(=O)(=O)c1ccc(S(=O)(=O)N2CCCN(Cc3ccccc3)C2)cc1	-8.0%	>57
COCc1cc(=O)n2[nH]c(-c3cccc(Br)c3)cc2n1	-13.0%	x
More entries follow:
SMILES	Anthrax LT inh	Prx2 Sm inh
COc1ccc(OCC(=O)Nc2ccc(C)cc2)cc1	-17.4%	>57
O=C(CSc1nccn1-c1ccccc1)N1CCc2ccccc21	0.0%	>57
CN(C)C(=O)COc1ccc2cc(-c3ccccc3)c(=O)oc2c1	-1.6%	x
CCCCOc1ccc(CN2CCCCC2)cc1	-11.6%	x
O=c1c(-c2ccc(F)cc2)nc2cncnc2n1-c1ccccc1	u	>57
CCCCC(=O)Nc1nnn(CCC)n1	2.2%	>57
CCC(OC(=O)c1cc2sccc2n1C)C(=O)NCc1ccco1 (centres undefined)	-17.3%	>57
O=C(OCCN1C(=O)c2ccccc2C1=O)c1cc(S(=O)(=O)N2CCOCC2)ccc1F	u	>57
CC1CCN(c2nc3c(c(=O)n(C)c(=O)n3C)n2CCSc2ncccn2)CC1	9.3%	>57
COc1cc(CNC(=O)CCCC/C=C\C(C)C)ccc1O	u	>57&>57&>57&>57
Cc1nnc(SCCn2c(N3CCCC(C)C3)nc3c2c(=O)[nH]c(=O)n3C)s1 (centres undefined)	-7.2%	>57
CCOc1ccc(OCC)c(NC(=O)CN2CCN(c3cccc(C)c3C)CC2)c1	-16.7%	>57
COC(=O)CCCCCN1C(=O)NC(c2ccc(-c3ccccc3)cc2)C(C(=O)OCc2ccccc2)=C1C (centres undefined)	-8.5%	x
O=C(NC1CCCCC1)c1cnn2c(C(F)(F)F)cc(-c3ccco3)nc12	-20.9%	>57
CC(C)(c1ccccc1)c1ccc(O)cc1	2.5%	x
Cc1ccc(-n2c(=O)[nH]c3c(C(N)=O)nc(-c4ccc(C)o4)nc32)cc1	-11.6%	>57
N=c1c2c(-c3ccccc3)c(-c3ccccc3)oc2ncn1CCCN1CCOCC1	x	>57
COC(=O)C(C(=O)NCC1CCCO1)C1CCCCCC1 (centres undefined)	6.8%	>57
Cc1ccc2cc(CN(Cc3cccs3)C(=O)c3ccco3)c3nnnn3c2c1C	-20.5%	>57
O=C(Cc1cn2ccsc2n1)OCc1nc2ccccc2s1	2.6%	>57
O=S(=O)(Cc1ccccc1)N1CCC(c2nc(-c3cccs3)no2)CC1	u	>57
COc1cc(Cl)ccc1NC(=O)COc1ccccc1C(=O)N1CCN(c2ccc(O)cc2)CC1	-4.1%	>57
CN(C)c1nc(-c2ccccc2)c2cnn(Cc3ccccc3)c2n1	u	x
Cc1ccccc1-c1nnc(SCc2ccccc2F)o1	-21.1%	>57
CCCOC(=O)c1c(N)sc2c1CCC2	-23.8%	x

The closing seven entries of the section before open the next one:
SMILES	Anthrax LT inh	Prx2 Sm inh
Cc1ccc2cc(CN(Cc3cccs3)C(=O)c3ccco3)c3nnnn3c2c1C	-20.5%	>57
O=C(Cc1cn2ccsc2n1)OCc1nc2ccccc2s1	2.6%	>57
O=S(=O)(Cc1ccccc1)N1CCC(c2nc(-c3cccs3)no2)CC1	u	>57
COc1cc(Cl)ccc1NC(=O)COc1ccccc1C(=O)N1CCN(c2ccc(O)cc2)CC1	-4.1%	>57
CN(C)c1nc(-c2ccccc2)c2cnn(Cc3ccccc3)c2n1	u	x
Cc1ccccc1-c1nnc(SCc2ccccc2F)o1	-21.1%	>57
CCCOC(=O)c1c(N)sc2c1CCC2	-23.8%	x
COc1cccc(-c2nnc(SCC(=O)N3CC(C)CC(C)C3)o2)c1 (centres undefined)	-6.6%	>57
CC(C)CCn1c(CN(C)Cc2ccccc2)nc2c1c(=O)n(C)c(=O)n2C	13.3%	>57
Cc1cc(N2CCC(C(=O)NC3CCCCC3)CC2)nc(-c2ccccc2)n1	-11.1%	>57
CCCCCNCCCCC	-1.3%	x
NS(=O)(=O)c1ccc(CCNC(=O)C2CCCN2C(=O)OCc2ccccc2)cc1 (centres undefined)	-5.7%	>57
CCn1c(N2CCN(CC(=O)c3ccc(OC)cc3)CC2)nc2ccccc21	10.5%	>57
Cc1cccc(C)c1NC(=O)N1C2CCCC1CC(NC(=O)C(C)(C)C)C2 (centres undefined)	2.3%	>57
COc1ccc(C)cc1-n1nnnc1SCn1nnc2ccccc2c1=O	-15.8%	>57
COc1ccc2cc(CN(CCc3ccccc3)Cc3nnnn3CC3CCCO3)c(=O)[nH]c2c1 (centres undefined)	-2.7%	>57
O=c1c(-c2ccc(F)cc2)coc2c3c(ccc12)OCCO3	1.5%	>57
Cc1cc(C)c(NC(=O)c2ccc(S(=O)(=O)N(C)C)cc2)c(C)n1	4.0%	>57
Cc1ccc(C)c(C(=O)NC2CC(C)(C)NC(C)(C)C2)c1	-4.2%	>57
CCn1ccnc1C(O)c1ccc(N(C)C)cc1 (centres undefined)	1.6%	>57
CCOC(=O)c1c(C)n(OCc2ccccc2)c2ccc3c(no[n+]3[O-])c12	-13.8%	>57
N#Cc1cc(N)c(Nc2ccccc2)cc1C#N	u	>57
Cc1ccc(C2c3sc(=O)[nH]c3SC3C(=O)NC(=O)C32)cc1 (centres undefined)	-17.8%	>57
CCCN1Cc2cccc(C(=O)Nc3ccc(CN4CCCC4)cc3)c2C1=O	u	>57
CCOC(=O)NC(=O)CSc1nc2ccc(OCC)cc2[nH]1	-3.4%	>57
COC(=O)c1ccc(OCC(O)CN2C(=O)NC(C)(C)C2=O)cc1 (centres undefined)	8.6%	x

Source: PubChem
